# Sa helicase inh = inhibitors of S. aureus replicative helicase, primary screen, biochemical, fluorescence unwinding readout; replicative DNA helicase (DnaC/DnaB), Staphylococcus aureus; purified S. aureus helicase, fluorescence unwinding assay; about half of the hits fall short of the stated cut; inhibition, %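 (tested at about 80 µM)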; actives 0.05% (n = 120,000); AID 485395, 2010;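 active = both duplicates at 50% or more, or one of them with a favoured structure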;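 note: 0% = mean of negative control wells and 100% = mean of positive control wells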
# MgrA DNA FP = S. aureus MgrA activity modulators, primary screen, biochemical, S. aureus Newman, fluorescence polarization | MgrA-DNA binding | actives 0.13% (n = 84,000) | inhibition, %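 (about 10 µg/mL by stock and volumes)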;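 active = above 50% in either of two replicates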;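 note: 0% = protein plus DNA without compound and 100% = DNA alone without protein; higher means less MgrA bound to DNA so lower polarization; one replicate is shown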
# * marks the source's active call; other numbers are inactive results; x = no result given; & = joins results of further samples. Only part of the results is shown (hit frequency here may not be typical).
Sa helicase inh,MgrA DNA FP,SMILES
4,9.7,O=C(O)C1C2C=CC(C2)C1C(=O)N1CCN(Cc2ccccc2)CC1 (stereo not drawn)
1&4,x,CCc1sc(N)nc1-c1ccc(Cl)cc1
13,x,N#Cc1oc2ccccc2c1NC(=O)Cc1c(Cl)cccc1Cl
x,-4.1,Cc1nc(C(=O)NCC(=O)c2cccc(Cl)c2)c(C(F)(F)F)o1
17,-1.0,c1ccc(-n2nnnc2N2CCCC2)cc1
2,x,CN1/C(=C\C=N\c2ccccn2)C(C)(C)c2ccccc21
x,-0.6,COc1ccc(CCNC(=O)c2nc3ccccc3c(=O)n2-n2cccc2)cc1OC
7,x,N#C/C(=C\c1ccsc1)C(=O)NCc1ccco1
x,-0.2,O=C1c2ccccc2-c2c1c1ccccc1c(=O)n2CC1CC1
x,-0.4,Fc1ccc(-c2nc3cc(Cl)ccc3o2)cc1
3&-34,-1.1,O=C(O)c1c[nH]c2ccccc2c1=O
-26,x,Oc1ccc2c(c1)c(-c1ccccc1)nn2-c1ccccc1
-1,x,COC(=O)c1ccccc1NC(=O)CN1C(=O)CSc2ncccc21
5,1.1,Nc1noc2c1C(C1CC=CCC1)C1=C2CCCC1=O (stereo not drawn)
x,5.3,CCc1cc(=O)[nH]c(=S)[nH]1
3,0.3,S=C(NCC(c1cccnc1)N1CCOCC1)Nc1ccccc1 (stereo not drawn)
-18,0.0,COC(=O)c1ccc(-n2c(C)cc(C(=O)CC#N)c2C)cc1
x,-2.9,O=C(O)CC(=O)Nc1ccccc1
5,-2.2,CSc1ncc(C(=O)Nc2cccc(F)c2)cn1
x,-0.4,CN(C)c1ccc(/C=C/c2ccccc2)cc1
9,x,C[C@H](NC(=O)c1ccco1)C(=O)Nc1ccc2oc3ccccc3c2c1
x,-2.8,CNC(=O)NC(=O)CSc1ncnc2sc(-c3ccccc3)cc12
7,x,O=c1[nH]cnc2c1nnn2Cc1ccccc1
8,x,OCn1cnc2ccccc21
-19,1.3,Cn1cnnc1SCC(=O)Nc1ccc(Cl)cc1C(F)(F)F
21,x,O=C(Cn1c(=O)oc2ccccc21)NCCc1ccco1
12,0.1,COCCN1Cc2cccc(C(=O)NC3CCCC3)c2C1=O
x,0.6,O=S(=O)(c1ccc(Br)s1)N1CCN(c2ccccc2)CC1
-7,x,O=C1Cc2ccccc2C(=O)N1Cc1ccccn1
12,x,N#Cc1ccc(OCC(=O)N2CCN(c3ccc(O)cc3)CC2)cc1
0,x,Cn1c(N)c(C(=O)CN2CCN(S(=O)(=O)c3ccccc3C(F)(F)F)CC2)c(=O)n(C)c1=O
-24,x,Cc1cc(C)n(-c2nc3ccccc3nc2N2CCN(C(=O)c3ccccc3Br)CC2)n1
8,-2.1,O=C(c1ccc2c(c1)N(Cc1ccccc1)C(=O)c1ccccc1S2(=O)=O)N1CCCCC1
3,1.9,CCC(C)NS(=O)(=O)c1ccc2[nH]c3c(c2c1)CCCC3 (stereo not drawn)
8,-1.9,Brc1ccc(N=C(c2ccccc2)c2ccncc2)cc1
x,-1.1,CC(=O)Oc1ccc(-n2c(C)cc(/C=C3\C(=O)NC(=O)N(c4ccccc4)C3=O)c2C)cc1
-33,x,CCOc1ccccc1C(=O)Nc1c(O)c2ccccc2oc1=O
5,x,COc1ccc(-c2noc(CNC(=O)C34CC5CC(CC(C5)C3)C4)n2)cc1
4,0.1,Cc1ccc(S(=O)(=O)C2(S(=O)(=O)c3ccc(C)cc3)CCCC2)cc1
2,-3.4,CN(C)c1ccc(CN2CCCC2)cc1
7,x,CS(=O)(=O)c1ccc(-c2cccc(NC(=O)c3ccc4c(c3)OCO4)c2)nn1
13,x,O=C(NCCC1=CCCCC1)C1CCN(c2nc3ccccc3o2)CC1
-35,x,CCCCNC(=O)N1CCN(C(c2ccccc2)c2ccccc2)CC1
-15,1.6,CCn1cc(CCC(=O)NC2CCCC(C)C2C)c2ccccc21 (stereo not drawn)
10,x,CCCCn1c(NCCO)nc2ccccc21

# Record cards, as listed above. Order of screens: Sa helicase inh | MgrA DNA FP
# `CCn1cc(CCC(=O)NC2CCCC(C)C2C)c2ccccc21` (stereo not drawn) is listed with -15 | 1.6
# `Cc1cc(C)n(-c2nc3ccccc3nc2N2CCN(C(=O)c3ccccc3Br)CC2)n1` is listed with -24 | x
# `CCCCNC(=O)N1CCN(C(c2ccccc2)c2ccccc2)CC1` is listed with -35 | x
# `O=C(c1ccc2c(c1)N(Cc1ccccc1)C(=O)c1ccccc1S2(=O)=O)N1CCCCC1` is listed with 8 | -2.1
# `CCOc1ccccc1C(=O)Nc1c(O)c2ccccc2oc1=O` is listed with -33 | x

# Following part:
Sa helicase inh,MgrA DNA FP,SMILES
x,2.1,COc1cc(CCC(=O)O)cc(OC)c1OC
x,0.3,N#Cc1ccc(C#CCOC(=O)c2cccs2)cc1
11,x,O=C(COc1ccc(-n2cnnn2)cc1)N1CCCc2ccccc21
-1,x,CC(C)=CCOc1ccc2c(c1)oc(=O)c1ccccc12
3,x,Cn1ccnc1SCc1csc(Nc2ccccc2)n1
6,x,CCSc1nc(=O)n(Cc2cccnc2)c2c1CCC2
2,x,CCn1c(-c2cccc(C)c2)nc2ccccc21
-19,x,O=C(c1cc2ccc3cccnc3c2[nH]1)N1CCN(Cc2ccccc2)CC1
x,3.5,CC1=NN(c2ccccc2)C(=O)/C1=C\c1ccc(Oc2ccc([N+](=O)[O-])cc2[N+](=O)[O-])cc1
-5,4.6,C1=C(N2CCOCC2)/C(=C/c2nc3ccccc3[nH]2)CC1
-11,x,c1ccc(N=C(CSc2nncs2)Nc2ccccc2)cc1
-14,x,CCS(=O)(=O)N1Cc2ccccc2CC1C(=O)N=c1sc2ccccc2n1C (stereo not drawn)
-4,x,NC1CCOc2ccccc21 (stereo not drawn)
x,-0.1,CSc1ccccc1N=C(N)N=C(N)N
7,x,Cc1cn2c(nc3c2c(=O)n(C)c(=O)n3C)o1
-1,3.9,CCc1cc2cc(C(=O)O)sc2s1
10,x,CCC1CCCCN1CCCNc1cnnc2c(Cl)cccc12 (stereo not drawn)
9,0.8,Cc1nc(O)c(C(c2ccccc2F)C(C#N)C#N)[nH]1 (stereo not drawn)
15,3.0,CC(=O)Nc1ccc(N/C=C/C(=O)C(C)(C)C)cc1
-10,0.2,Cc1nc2ccccc2c(=O)n1NCc1ccccc1Br
-6,x,O=C1CCN(C(=O)CCCSc2nc3ccccc3[nH]2)CC1
x,-0.5,O=C(O)CCCC(=O)NC1CCCc2ccccc21 (stereo not drawn)
6,-0.4,CCCNC(=O)C1=C(C)C(=O)OC12CCCCC2
-31,x,O=C(NC(=S)Nc1ccc2[nH]c(=O)[nH]c2c1)c1ccccc1Br
-3,1.2,O=C(CSc1nnc(CNC(=O)c2ccco2)o1)NCc1ccccc1
x,-1.7,CC1CC(C)CN(c2ccc(NS(=O)(=O)c3ccccc3)cc2C(=O)O)C1 (stereo not drawn)
42,x,CN1CCc2nc(NC(=O)Cc3coc4cc5c(cc34)CCC5)sc2C1
x,-4.0,COc1cc2ncnc(N3CCCC3)c2cc1OC
17,x,Cc1ccc(CN2C(=O)CN(C3CCCC3)C(=O)C2c2ccc(F)cc2)cc1 (stereo not drawn)
13,2.4,O=C(c1nc2ncccn2n1)N1CCc2ccccc2C1
3,6.5,COCc1c(CSSCc2cnc(C)c(O)c2COC)cnc(C)c1O
17,4.8,Cc1cccnc1NC(=O)C(F)(F)C(F)(F)C(F)(F)F
15,x,CC1CCCCN1c1nnc(NC(=O)NC2CCCC2)s1 (stereo not drawn)
22,x,CN(C)S(=O)(=O)c1ccc(C(=O)N2CCN(C(=O)c3ccccc3)CC2)cc1
-14,x,Cc1ccc(Cn2nc(C)c(/C=C/C(=O)OCc3nc4ccccc4c(=O)n3CC#N)c2C)cc1
5,x,COC(=O)CSc1nnc(SCc2ccc(Cl)cc2)s1
-1,7.2,NC(=O)c1cccnc1-c1nc2ccccc2s1
11,x,COc1ccccc1/C=N/OCn1nnc2ccccc2c1=O
-32,x,CN(C)c1ccc(/C=C2/CCC/C(=C\c3ccc(N(C)C)cc3)C2=O)cc1
-7,1.1,COc1cccc(NC(=O)C(C)Sc2nc(-c3ccccc3)cc(C(F)(F)F)n2)c1 (stereo not drawn)
6,2.2,Cc1ccc(-n2nc3c(c2NC(=O)/C=C\c2ccccc2)CSC3)cc1
x,-2.4,O=C(c1cccs1)N1CCc2sccc2C1c1ccc(Cl)cc1 (stereo not drawn)
12,-1.6,COc1ccccc1NCC(C)(C)CC=C(C)C
-6,x,NC(=O)c1ccccc1OCC(=O)N1CCC(Cc2ccccc2)CC1
8,x,C=CCn1c(SCC(=O)Nc2sc3c(c2C(=O)OC)CCC3)nnc1-c1cccnc1
-16,x,Cc1cc(NC(=O)Nc2ccc(Cl)cc2)n(C(C)(C)C)n1
8,-2.9,Oc1ccc(-c2nc(-c3c[nH]c4ccccc34)cs2)cc1
-1,x,Cc1cc(C)nc(SCCN2CCCC2)n1
7,-1.5,COc1c(F)c(F)c(C(=O)Nc2ccc(N3CCN(S(C)(=O)=O)CC3)cc2)c(F)c1F
x,-2.3,CN(C)c1cc(N2CCCC2)c(F)cc1[N+](=O)[O-]
x,-1.8,CC(C)c1ccc(NC(=S)NCc2ccc(C#N)cc2)cc1
-1,x,CCOC(=O)C1=C(C)NC(C)=C(C(=O)OCC)C1C(=O)OCN1C(=O)c2ccccc2C1=O
19,x,COc1cccc(Nc2nc3c(S(=O)(=O)c4ccccc4)nnn3c3ccsc23)c1
x,0.4,Cc1ccc([N+](=O)[O-])c2c1NC(c1ccc(Cl)cc1Cl)C1CC=CC21 (stereo not drawn)
x,-0.5,O=C(Nn1c(-c2cccs2)nc2ccccc2c1=O)c1cc2cc(Br)ccc2oc1=O
2,11,Cc1ccc(S(=O)(=O)Nc2nc3ccccc3nc2N2CCN(c3ccccc3)CC2)cc1
-7,-0.2,NC(=O)CCN1C(=O)c2ccccc2C1=O
13,x,O=C(c1ccccn1)N1CCc2ccccc2C1
-5,x,COc1ccc(C(=O)OCC(=O)c2ccc3[nH]c(=O)[nH]c3c2)c(OC)c1
8,x,c1ccc2c(c1)c1ccccc1c1nc(N3CCOCC3)nnc21

# Next section.
Sa helicase inh,MgrA DNA FP,SMILES
6,-1.6,O=C1CSc2nnc(-c3ccccc3Br)n2N1
x,-2.9,CC(C)(C)C(=O)CSc1nc(SCC(=O)C(C)(C)C)c2ccccc2n1
x,-1.0,O=C(c1ccccc1S(=O)(=O)NCC(O)COc1ccc(N2C(=O)C3CC=CCC3C2=O)cc1)N1CCOCC1 (stereo not drawn)
14,-2.6,C=CCc1cccc2cc(C(=O)NCC3CCCO3)c(=O)oc12 (stereo not drawn)
21,6.1,CCOc1ccccc1N(C)S(=O)(=O)c1cccc2cccnc12
-3,x,CC12CCC(C1)C(C)(C)/C2=N\O (stereo not drawn)
7,x,N#Cc1c(-n2ncnc2-c2ccc3c(c2)OCO3)sc2c1CCCCC2
14,0.1,COC(=O)c1ccc2c(c1)NC(=O)c1ccccc1S2
-4,x,Cc1cc(NC(=O)CSCC(=O)N=c2sc3ccccc3n2C)no1
14,-0.5,CC(=O)Nc1ccc2nc(NC(=O)c3cccc(F)c3)sc2c1
x,-0.8,Cc1ccc(C)n1-c1ccc(C2(O)CCSc3ccccc32)cc1 (stereo not drawn)
-18,2.0,Cc1ccc(C2=C[N+](=O)C(C)(C)C(C)(C)N2[O-])cc1
33,x,CCN(CC(=O)Nc1ccc(NC(C)=O)cc1)CC(=O)Nc1cc(C)on1
7,0.8,COc1ccc2c3c(ccc2c1)-c1[nH]c2ccccc2c1CC3
-14,1.4,CC1(C)N=C(SCC(=O)Nc2ccccc2)C(c2ccccc2)=N1
-8,x,O=C(CCCSc1nnc(-c2ccco2)n1-c1ccccc1)c1ccccc1
x,-1.1,COCc1cc(=O)n2[nH]c(C)cc2n1
23,0.7,CCSc1ccccc1C(=O)Nc1cccc(OC)c1
-2,-0.4,NC(=O)C1CCN(C(=O)c2ccc(Oc3ccccc3)cc2)CC1
2,1.6,CCOC(=O)c1ccccc1NS(C)(=O)=O
-3,x,NS(=O)(=O)c1ccc(NC(=O)CSc2nc3sc4c(c3c(=O)[nH]2)CCC4)cc1
x,4.4,O=C(Cc1ccccc1)N/N=C/c1ccc(O)cc1
-4,3.8,CCC(c1nnnn1C(C)(C)CC)N1CCN(c2ccccc2)CC1 (stereo not drawn)
x,-0.9,Cc1ccc(C(=O)CSc2nnc(-c3snnc3C)n2C2CC2)cc1
6,x,COc1ccc(S(=O)(=O)NCc2ccc(C(=O)N3CCN(C)CC3)cc2)cc1
9,x,CCN1CCN(CCCNC(=O)C2c3cc(OC)c(OC)cc3C(=O)N(C)C2c2cccnc2)CC1 (stereo not drawn)
2,x,CC(=O)N1CCc2c(sc(NC(=O)c3ccc(Br)s3)c2-c2nc3ccccc3s2)C1
x,1.1,CCOC(=O)c1csc(Nc2ccncc2)n1
14,-1.1,Cc1cc(S(=O)(=O)NC23CC4CC(CC(C4)C2)C3)ccc1-n1cnnn1
9,x,c1ccc(C(Cc2nc(-c3cccnc3)no2)c2ccccc2)cc1

# Some of the entries above, set out differently:
compound: CN1CCc2nc(NC(=O)Cc3coc4cc5c(cc34)CCC5)sc2C1
  Sa helicase inh = 42
  MgrA DNA FP = x
compound: COc1cc2ncnc(N3CCCC3)c2cc1OC
  Sa helicase inh = x
  MgrA DNA FP = -4.0
compound: Cc1ccc(CN2C(=O)CN(C3CCCC3)C(=O)C2c2ccc(F)cc2)cc1 (stereo not drawn)
  Sa helicase inh = 17
  MgrA DNA FP = x
compound: O=C(c1nc2ncccn2n1)N1CCc2ccccc2C1
  Sa helicase inh = 13
  MgrA DNA FP = 2.4

# (continued)
Sa helicase inh,MgrA DNA FP,SMILES
16,1.3,COc1ccc(-n2nc(C(=O)NCC3CCCO3)c3c4ccccc4n(C)c3c2=O)cc1 (stereo not drawn)
-3,x,c1csc(-c2nc(SCC3COc4ccccc4O3)n[nH]2)c1 (stereo not drawn)
-25,-0.9,NC(=O)c1cc(SC(F)(F)F)cc(SC(F)(F)F)c1
-16,3.0,COc1ccc(-n2nc(C(=O)N(C)C)nc2-c2ccccc2)cc1
